Compound activity (PubChem BioAssay)
eIF4H inh: inhibitors of RNA binding by human eIF4H; Q15056; eIF4H fluorescence polarization binding assay; hit rate 0.94% among 290,000; inhibition, % at 35 µM; AID 2012;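 active = 50% or more with normal probe brightness, or confirmed in later tests; inconclusive = above 50% with abnormal brightness, or retests that disagree; inactive = below 50% or failed in later tests; about a fifth of its hits are not listed in these tables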;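 also: calls also rest on retests at 20 µM and on dose response follow-up; 0% = protein and probe with vehicle and 100% = probe without protein; strong numbers were not always called active; many hits fall short of the cut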
HIV Env fusion: HIV envelope-mediated fusion inhibition; HeLa-JRFL Env/CEM21 cell fusion, luciferase; inhibition, % at 12.3 µM; hit rate 1.1% among 360,000;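 active = mean replicate inhibition score of at least 50 and every replicate individually at or above 50; inconclusive = only one of the two criteria met; inactive = mean below 50 and not all replicates reaching 50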;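 also: 0% = plate neutral controls and 100% = maraviroc near 300 nM; one replicate is shown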
Yeast UUG start: yeast start codon fidelity modulation. S. cerevisiae UUG-firefly luciferase reporter, luminescence/redox ratio. hit rate 0.13% among 350,000. activity score, % at 18.7 µM;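 active = replicate mean at a twofold rise or more, about +100% in these data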;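 also: firefly luciferase made from a UUG start codon reports start codon fidelity; reporter light over untreated wells divided by growth signal over untreated wells; some hits fall short of that in this replicate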
MT1-MMP act inh: inhibitors of human MT1-MMP activation. P50281. HT1080 RFP-PRO-GFP cells, GFP/RFP ratio fluorescence, overnight; percent of plate control window, DMSO zero. GFP/RFP ratio change, % at 20 µM. hit rate 0.061% among 360,000. AID 651647;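 active = GFP/RFP ratio change of at least 30% with cell ATP level not reduced by more than half and red fluorescence within 50% of control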; also: strong numbers were not always called active
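Read-out: GFP/RFP fluorescence ratio; Test system: RFP-PRO-GFP reporter HT1080 cells; Compound dosing: single-point 20 µM compound, 1% DMSO; Times: overnight compound exposure at 37 °C.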
CSC inhib: blocks cancer stem cells. cancer stem cell-like cells viability, luminescence. inhibition, % at 7.5 µM. hit rate 1.1% among 300,000. AID 2717;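 active = mean at 75% or more and at least half the replicates too; inconclusive = mean and replicates disagree; tested in HMLE shEcad cells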;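 also: 0% = median of negative and 100% = median of positive control wells; the first replicate is given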
Rce1 inhib: inhibitors of yeast Ras-converting enzyme; Q03530; yeast membranes, quenched prenylated peptide cleavage fluorescence; calls only; hit rate 0.27% among 290,000;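 active = fall in fluorescence gain of 50% or more versus controls, with final raw signal at or below 3038400; inconclusive = same 50% fall but final raw signal above 3038400; inactive = fall in fluorescence gain under 50%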;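 also: plate controls were neutral control wells for no effect and wells lacking membranes for full effect; tested at 10 µM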
PABP FP inh: blocks human PABP binding to poly(A) RNA; inhibition, % at 35 µM; P11940; fluorescence polarization; hit rate 1% among 290,000; AID 2014;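 active = 50% or more with normal probe brightness, or confirmed in later tests; inconclusive = above 50% with abnormal brightness, or retests that disagree; inactive = below 50% or failed in later tests; about a fifth of its hits are not listed in these tables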;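 also: calls also rest on retests at 20 µM and on dose response follow-up; controls were probe without protein and protein plus probe with vehicle; some compounds called inactive have numbers as strong as hits; many hits fall short of the cut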
Target sequence (P11940 whole entry, looked up): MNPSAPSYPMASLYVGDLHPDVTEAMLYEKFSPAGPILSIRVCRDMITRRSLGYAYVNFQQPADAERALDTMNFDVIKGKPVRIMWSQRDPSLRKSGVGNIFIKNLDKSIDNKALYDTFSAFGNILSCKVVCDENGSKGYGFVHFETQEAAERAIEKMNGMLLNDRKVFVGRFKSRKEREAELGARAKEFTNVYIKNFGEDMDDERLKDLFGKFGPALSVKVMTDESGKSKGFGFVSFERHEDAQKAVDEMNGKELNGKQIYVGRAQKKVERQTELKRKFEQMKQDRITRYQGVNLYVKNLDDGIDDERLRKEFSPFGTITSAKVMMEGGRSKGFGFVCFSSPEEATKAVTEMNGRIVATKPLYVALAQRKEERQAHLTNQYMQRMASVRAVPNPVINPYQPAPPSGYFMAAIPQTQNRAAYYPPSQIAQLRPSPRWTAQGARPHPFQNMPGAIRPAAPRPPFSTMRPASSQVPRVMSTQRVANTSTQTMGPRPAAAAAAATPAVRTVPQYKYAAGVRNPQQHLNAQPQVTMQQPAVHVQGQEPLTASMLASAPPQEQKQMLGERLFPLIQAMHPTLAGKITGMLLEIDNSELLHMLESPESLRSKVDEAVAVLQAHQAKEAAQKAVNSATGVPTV
eIF4H inh retest: further read-out of eIF4H inh, marked with its call; inhibition, %; compound at 20 µM; confirmation average;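 mean of two retest wells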
PABP FP inh retest: further read-out of PABP FP inh, marked with its call; inhibition, %; compound at 20 µM; confirmation repeats;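 mean of two retest wells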
MT1-MMP act inh RFP: further read-out of MT1-MMP act inh, marked with its call; RFP signal change, %; measured here: RFP expression control read;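 0 = vehicle wells; hits needed this value within 50% of zero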
* = called active by the depositor; i = inactive; ? = inconclusive; nt = not tested or not shown.

SMILES | eIF4H inh | HIV Env fusion | Yeast UUG start | MT1-MMP act inh | MT1-MMP act inh RFP | CSC inhib | Rce1 inhib | PABP FP inh | others
Cc1nc(N=C(N)N)nc2ccccc12 | -4 | 16 | nt | 2 | -6 | 2 | i | 10
O=C(/C(=C/c1ccc(Cl)cc1)c1nc2ccccc2[nH]1)c1ccccc1 | -10 | i | -16 | -19 | -41 | 58 | i | 0
S=C(NCc1ccccc1Cl)NC1CCCC1 | 2 | -8 | -18 | -1 | -4 | -18 | i | 2
CCCCn1c(SCC(=O)N2CCCC2=O)nc2cc(S(N)(=O)=O)ccc21 | nt | nt | -10 | -1 | 6 | 2 | nt | nt
COC(=O)C(NC(=O)c1ccco1)(Nc1nc(C2CC2)cs1)C(F)(F)F (stereo not given) | -6 | -73 | -12 | -5 | 0 | 4 | i | -7
Cc1ccc(NS(=O)(=O)c2ccc3c(c2)NC(=O)CCS3)c(Br)c1 | 1 | 22 | -2 | -5 | -5 | 7 | i | 8
O=C(Oc1ccccc1-c1csnn1)c1cccs1 | 2 | 1 | nt | -4 | -6 | 9 | i | 3
Cc1cc(C(=O)Cn2nc(C(=O)O)c3ccccc3c2=O)c(C)n1-c1ccc(F)cc1 | -2 | -4 | nt | 7 | 11 | 4 | i | 2
O=C(O)c1ccc(COc2ccc3ccccc3c2/C=C2/NC(=O)N(c3ccccc3)C2=O)cc1 | 1 | -14 | 1 | 2 | 4 | 4 | i | 5
Nc1ncnc(Nc2cccc(F)c2)n1 | 2 | 2 | nt | 2 | 1 | -6 | i | 3
CCC1(CC)NC(=O)N(CC(=O)Nc2ccc(C)cc2C)C1=O | nt | 1 | -26 | 1 | 1 | -20 | nt | nt
O=C(Nc1ccc2c(c1)Cc1ccccc1-2)c1ccc(Br)o1 | 4 | nt | -13 | 2 | -1 | 9 | i | -4
Cc1ccc(/C(O)=C2\C(=O)C(=O)N(C)C2c2ccc(Br)cc2)cc1 (stereo not given) | -12 | 6 | -9 | -1 | 1 | -1 | i | 4
O=C(Nc1ccc2sccc2c1)c1cccc(N2C(=O)CCC2=O)c1 | 2 | -33 | nt | 4 | 2 | -14 | i | 11
O=C(CNS(=O)(=O)Cc1ccccc1)NNc1ccccc1 | nt | 1 | -19 | 5 | 3 | nt | nt | nt
Cn1c(CNC(=O)C2CCC(=O)N(CCc3cccc(F)c3)C2)nc2ccccc21 (stereo not given) | -6 | 8 | 16 | -2 | -2 | -15 | i | 6
C=CCNC(=O)COC(=O)CCC(=O)c1cccs1 | 5 | 5 | -17 | 0 | 1 | -10 | i | -7
CCCn1c(CCC(=O)O)ccc1-c1cccs1 | 12 | nt | -3 | -5 | 0 | 9 | i | 15
O=C(COc1ccccc1)NC(NC(=S)Nc1ccccc1C(=O)O)C(Cl)(Cl)Cl (stereo not given) | 2 | -43 | -21 | -4 | -4 | -3 | i | 22
O=C(CCCOc1ccccc1)N1CCCc2ccccc21 | -3 | -28 | -8 | 4 | 1 | 6 | i | -6
CN1CC2(C(=O)c3ccccc3)CN(C)CC(C(=O)c3ccccc3)(C1)C2 | 2 | 3 | -15 | 0 | -13 | -4 | i | 11
Cc1cc2c(c(=O)n1CCN(C)C)C(c1ccc(Br)cc1)C(C#N)=C(N)O2 (stereo not given) | 2 | nt | -10 | 9 | 4 | -9 | i | -3
O=C(NCc1ccc(Cl)cc1)c1ncn[nH]1 | 96 | -37 | -14 | 5 | 6 | 3 | i | -9 | eIF4H inh retest=7;PABP FP inh retest=1
O=C(CC1C(=O)NCCN1Cc1ccc(F)c(F)c1)NCCn1cccn1 (stereo not given) | 20 | -8 | -4 | -2 | 0 | -11 | i | 26
COc1ccc(B(O)O)c(CN2CCN(C(=O)OC(C)(C)C)CC2)c1 | nt | 4 | -15 | 1 | -1 | nt | nt | nt
The results go on:
SMILES | eIF4H inh | HIV Env fusion | Yeast UUG start | MT1-MMP act inh | MT1-MMP act inh RFP | CSC inhib | Rce1 inhib | PABP FP inh | others
O=C(c1ccco1)N1CCN(C(=O)c2cccc3c2C(=O)N(Cc2cccnc2)C3)CC1 | -2 | 26 | -12 | 3 | 5 | nt | i | -5
Cc1cccc(-n2nnc(C(=O)NCc3ccccc3)c2N)c1 | -19 | 1 | 1 | 1 | 1 | 2 | i | 22
CN(CC(=O)NC(=O)NC1CCCCC1)CC(=O)Nc1ccc(Cl)cc1 | nt | nt | 8 | 1 | -5 | -6 | nt | nt
CCCCOc1ccc(-c2nnn(CC(=O)NCCc3c[nH]c4ccccc34)n2)cc1 | -5 | 21 | -4 | 10 | -3 | 12 | i | -4
O=C(O)c1ccc2ccc3ccccc3c2c1 | nt | 2 | -13 | -1 | -4 | 11 | i | nt
COc1ccc(CCNC(=O)C(=O)NCC2OCCN2S(=O)(=O)c2cc(F)ccc2F)cc1 (stereo not given) | -15 | nt | -9 | 0 | 0 | -1 | i | -1
O=C(CNS(=O)(=O)c1cccc2nsnc12)NC1CCCCC1 | -4 | 8 | nt | 0 | -1 | 0 | i | 8
N#Cc1nc(-c2ccc(F)cc2)oc1N1CCN(C(=O)c2ccco2)CC1 | 11 | -135 | -15 | 4 | 4 | 7 | i | -2
CCOC(=O)C1CCCc2c1[nH]c1ccc(Cl)cc21 (stereo not given) | 5 | 9 | nt | 1 | 1 | 3 | i | -5
COc1ccc(CNC(=O)c2cccs2)cc1 | -1 | -10 | 8 | 5 | 5 | -6 | i | 0
Cc1ccc(O)c(NC(=O)c2cc3nc4c(c(C(F)(F)F)n3n2)CCc2ccccc2-4)c1 | -6 | nt | 8 | 11 | 7 | -1 | i | 9
COc1ccccc1NC(=O)c1cc2c(cc1Cl)N1CCCCCC1=NS2(=O)=O | nt | 26 | -8 | 3 | 2 | -7 | nt | nt
Cc1nc2cc(-c3ccc(Br)cc3)[nH]n2c(=O)c1Cl | 23 | -25 | -27 | 2 | -4 | nt | i | -11
COc1ccc(CNC(=O)C(NC(C)=O)C(=O)Nc2ccc(OC)cc2)cc1 (stereo not given) | 0 | nt | -20 | -2 | 0 | -3 | i | -4
NC(=O)CCSC(=S)N1CCOCC1 | -12 | -3 | -37 | -2 | 2 | 1 | i | -6
Cc1ccccc1CN(C)CC(=O)Nc1ccccc1Oc1ccccc1 | 3 | 30 | 0 | 0 | -1 | nt | i | -5
COc1ccc(CNC(=O)CN(Cc2ccc(OC)cc2)C(=O)CCC(=O)Nc2ccccn2)cc1 | -8 | 4 | -26 | -3 | 2 | nt | i | 0
COc1ccc(OC)c(-n2cnc3cc(C(=O)NCCCN4CCOCC4)ccc32)c1 | -8 | nt | -10 | 0 | 0 | -6 | i | 2
COC(=O)c1cc(Nc2cc(C)nc3ncnn23)cc(C(=O)OC)c1 | 3 | -21 | -14 | 2 | 0 | -3 | i | -3
O=C1c2ccccc2C(=O)N1CCCc1c[nH]c2ccc(Cl)cc12 | -10 | nt | -11 | 0 | -3 | 22 | i | -14
O=C(CCN1CCc2ccccc21)c1ccc2c(c1)OCCO2 | ? | nt | -12 | 4 | -12 | nt | i | ?
CC(=O)N1CCN(S(=O)(=O)c2cccc(C(=O)OCN3C(=O)c4ccccc4C3=O)c2)CC1 | -1 | -1 | 4 | 0 | 0 | -4 | i | -2
CC1CCCCC1NC(=O)c1cc(=O)[nH]c2ccccc12 (stereo not given) | nt | -14 | -21 | 2 | 3 | 3 | i | nt
Cc1ccc(C(=O)NC2CCS(=O)(=O)C2)cc1S(=O)(=O)N1CCCC1 (stereo not given) | 9 | 4 | 5 | -2 | 2 | -8 | i | 7
Cc1cc(C)c(NC(=O)C2CSCCS2)c(C)c1 (stereo not given) | 0 | -67 | -13 | 0 | 2 | -1 | i | -8
Following part:
SMILES | eIF4H inh | HIV Env fusion | Yeast UUG start | MT1-MMP act inh | MT1-MMP act inh RFP | CSC inhib | Rce1 inhib | PABP FP inh | others
COCCNC(=O)C1(C)CCCN(C(=O)c2cccc(Cl)c2)C1 (stereo not given) | nt | -7 | -13 | -2 | 2 | nt | nt | nt
O=c1c2ccccc2c(C=NC2CCN(Cc3ccccc3)CC2)c(O)n1Cc1ccc2c(c1)OCO2 | 0 | 1 | nt | nt | nt | 34 | i | 15
S=C(NCCCc1ccccc1)Nc1ccc(Cl)cc1 | 2 | 26 | nt | 4 | -3 | -5 | i | 13
CN(C)S(=O)(=O)c1cccc(C(=O)Nc2ccccc2)c1 | -2 | -29 | nt | -1 | 2 | -18 | i | -11
CC1(C)CC2CC(C)(CN2C(=O)COC(=O)c2ccc(NC(=O)CC#N)cc2)C1 (stereo not given) | nt | -4 | 3 | -6 | 3 | -21 | nt | nt
COCCn1c(CN2CCN(C)CC2)nc2c1c(=O)n(C)c(=O)n2C | -1 | 12 | -22 | -2 | 7 | nt | nt | -4
CCCN1C(=O)/C(=C/c2c(NCCCOC(C)C)nc3c(C)cccn3c2=O)SC1=S | ? | nt | 1 | -179 | 0 | 16 | i | ?
CCC(C)c1ccc(OCC(=O)Nc2ccc(Cl)cn2)cc1 (stereo not given) | -2 | -93 | -15 | 0 | 1 | 9 | i | -3
CCOc1ccccc1NC(=O)C1=C(C)NC(=O)NC1c1cccc(OC)c1OC (stereo not given) | -7 | nt | -34 | -6 | 0 | -7 | i | -12
Cc1ccc(-c2nn(-c3ccccc3)cc2C(=O)Nc2ccc(C(=O)O)cc2)cc1 | -2 | 8 | nt | 3 | 1 | -7 | i | -16
Cc1ccc2cc(C)c(SCC#N)nc2c1 | -12 | -492 | -17 | 1 | -3 | -7 | i | 0
CCOc1ccc(C(=O)Nc2ccc(CN3CCOCC3)cc2)cc1Cl | 3 | -27 | -5 | 3 | -8 | nt | i | 0
Cc1cc(O)c(C(C)C)cc1N=Cc1cc([N+](=O)[O-])ccc1O | -12 | 2 | -21 | -7 | 2 | 1 | i | 0
CCN(CC)S(=O)(=O)c1ccc(/C=C/C(=O)N(c2ccccn2)C2CCCCC2)cc1 | -6 | 1 | -12 | 0 | -3 | 31 | nt | 18
CCOC(=O)c1cc2c(ccn2C)n1Cc1cc(C)ccc1C | 11 | 40 | -4 | -4 | 2 | 10 | i | 15
CC1CCC2(CC1)NC(=O)N(CC(=O)c1ccc[nH]1)C2=O (stereo not given) | 2 | nt | -4 | 2 | 1 | -3 | i | 12

Reprinted at random: 3 compounds from above, in no set order.
SMILES | eIF4H inh | HIV Env fusion | Yeast UUG start | MT1-MMP act inh | MT1-MMP act inh RFP | CSC inhib | Rce1 inhib | PABP FP inh | others
CCOc1ccc(C(=O)Nc2ccc(CN3CCOCC3)cc2)cc1Cl | 3 | -27 | -5 | 3 | -8 | nt | i | 0
Cc1ccc(-c2nn(-c3ccccc3)cc2C(=O)Nc2ccc(C(=O)O)cc2)cc1 | -2 | 8 | nt | 3 | 1 | -7 | i | -16
O=c1c2ccccc2c(C=NC2CCN(Cc3ccccc3)CC2)c(O)n1Cc1ccc2c(c1)OCO2 | 0 | 1 | nt | nt | nt | 34 | i | 15

An excerpt from above in order of length of the SMILES, highest first.
SMILES | eIF4H inh | HIV Env fusion | Yeast UUG start | MT1-MMP act inh | MT1-MMP act inh RFP | CSC inhib | Rce1 inhib | PABP FP inh | others
CN1CC2(C(=O)c3ccccc3)CN(C)CC(C(=O)c3ccccc3)(C1)C2 | 2 | 3 | -15 | 0 | -13 | -4 | i | 11
CC1CCC2(CC1)NC(=O)N(CC(=O)c1ccc[nH]1)C2=O (stereo not given) | 2 | nt | -4 | 2 | 1 | -3 | i | 12
Cc1nc2cc(-c3ccc(Br)cc3)[nH]n2c(=O)c1Cl | 23 | -25 | -27 | 2 | -4 | nt | i | -11
